# Vaccinia Venus: inhibitors of vaccinia virus (Venus reporter) | Potency, µM (top dose mostly 36.5 µM), for inactives: top-dose activity change, negative = inhibition, usual class: inhibitors | 330,000 tested, 0.46% active | AID 720580 | Vaccinia virus Venus reporter expression, fluorescence; active means well fitted inhibition curve with a large enough effect; inconclusive means small, poorly fitted or top-dose-only effect; inactive means no such curve, though single readings can be large or run the other way; tested in A549 cells; also: nearly all actives have a fitted effect of over 30% in size; inactives centre near -10
# Vaccinia mCherry: inhibitors of vaccinia virus infection (mCherry reporter signal) | Vaccinia virus mCherry reporter infection, fluorescence; about a quarter of the inactives have no number | Potency, µM (series often up to 36.5 µM), without a hit: at the top dose activity change, negative = inhibition, actives largely listed as inhibitors | 310,000 tested, 0.63% active | AID 720579; active = well fitted inhibition curve with a large enough effect; inconclusive = small, poorly fitted or top-dose-only effect; inactive = no such curve, though single readings can be large or run the other way; tested in A549 cells; also: nearly all actives have a fitted effect of over 35% in size; inactives centre near -10
# Starred values were filed as active, the others as inactive; i = inactive; ? = inconclusive; · = not tested or not shown; & = joins results of further samples. % is scaled to controls: 0 for no effect and ±100 for the full control effect; potency is read from the fitted curve at half-maximal effect.
# Start of the data: the first two compounds, to show the layout:
# Results follow in this order: Vaccinia Venus	Vaccinia mCherry
C=CCOC(=O)C1=C[C@H](C(C)(C)C)[C@@H](CCCO)[C@H](OCC)O1
  -9%	i
CC(=O)c1ccc(N2CCN(CC(=O)Nc3ccc4c(c3)OCCO4)CC2)cc1
  -23%	-25%

# The whole of this part, previewed entries included:
# Results follow in this order: Vaccinia Venus	Vaccinia mCherry
C=CCOC(=O)C1=C[C@H](C(C)(C)C)[C@@H](CCCO)[C@H](OCC)O1
  -9%	i
CC(=O)c1ccc(N2CCN(CC(=O)Nc3ccc4c(c3)OCCO4)CC2)cc1
  -23%	-25%
CCCCCCC(=O)Oc1cccc(C2=CC(=O)CC(C)(C)C2=O)c1
  -3%	i
CCC1SC(=Nc2cccc(C)c2)NC1=O (stereo not drawn)
  -8%	i
CC(=O)c1ccc(NC(=S)N2CCCC(C(F)(F)F)C2)cc1 (stereo not drawn)
  -3%	-1%
CC[n+]1c(/C=C/c2cc([N+](=O)[O-])ccc2O)ccc2ccccc21
  27%	-15%
CC12CCC3C(CCCC4CC(=O)CCC43C)C1CCC2O (stereo not drawn)
  -16%	i
O=C(Cn1ncc2c([nH]c3ccccc32)c1=O)Nc1cc(F)ccc1F
  -7%	-3%
Cc1cccc(NC(=O)c2cccc(N3CCCS3(=O)=O)c2)c1
  -6%	-12%
CCOc1ncccc1C(=O)Nc1cc(S(=O)(=O)N2CCOCC2)ccc1N1CCCC1
  -17%	-17%
NCCCCC(C(=O)O)N(C(=O)OCc1ccccc1)C(=O)OCc1ccccc1 (stereo not drawn)
  -4%	-11%
COc1cccc(NC(=O)CN(C)C(=O)c2ccccc2-c2nc3ccccc3s2)c1
  -19%	-27%
COc1ccc(N2CCN(C(=O)CC34CC5CC(CC(C5)C3)C4)CC2)c([N+](=O)[O-])c1
  -3%	-15%
Cc1cc(C(=O)COc2ncnc3sccc23)c(C)n1C
  -9%	-22%
CCn1cc(C(=O)N2CCN(c3ccccn3)CC2)c(=O)c2cc(S(=O)(=O)N3CCC(C)CC3)ccc21
  -27%	-5%
Oc1cc2c(cc1CN1CCN(c3ccccc3F)CC1)OCO2
  ?	?
CC1CCc2nc3sc4c(c3c(N)c2C1)CCCC4 (stereo not drawn)
  ?	i
COc1ccc(-c2cc(NC=O)c3ncc(-c4ccccc4)n3c2)cc1OC
  -24%	-30%
Cc1ccc(-c2c[n+]3c(n2-c2ccccc2)CCC3)cc1
  -25%	-16%
COc1cc(CC(=O)N/N=C/c2ccc([N+](=O)[O-])cc2)c([N+](=O)[O-])cc1OC
  -18%	-18%
Cc1cc(=O)n(CC(=O)Nc2cccc([N+](=O)[O-])c2)c(-n2nc(C)cc2C)n1
  -5%	-12%
CCCCCn1c(Sc2nc3ccccc3s2)nc2c1c(=O)[nH]c(=O)n2C
  10µM*	10µM*
COCCn1c(SCC(=O)NC(=O)NC(C)C)nc2ccccc21
  -20%	·
CCCCc1cc(=O)oc2c(CN(CC)CC)c(O)c(Cl)cc12
  -7%	·
CN(CCO)C(=O)c1cccc2c1-c1ccccc1C2=O
  -8%	-15%
Cc1cc(-c2csc(NC(=O)c3ccc(C#N)cc3)n2)c(C)n1Cc1ccccc1
  -26%	-17%
CCCN(C(=O)c1cc(S(=O)(=O)N(C)c2ccc(OCC)cc2)ccc1C)C1CCS(=O)(=O)C1 (stereo not drawn)
  -11%	-4%
CCCCOc1ccc(S(=O)(=O)Nc2cc(OC)ccc2OC)cc1
  -10%	-7%
O=[N+]([O-])c1cccc(-n2cccc2/C=N/Nc2nc(N3CCCCC3)nc(N3CCCCC3)n2)c1
  -4%	7%
Cc1ccc(-c2cc(C(=O)Nc3cc(C)on3)c3ccccc3n2)cc1
  -8%	i
N#Cc1ccc(C23CC4(C2)[C@H](CN(P(=O)(c2ccccc2)c2ccccc2)[C@@H]4c2ccccc2)C3c2ccc(Cl)nc2)cc1 (stereo partly drawn)
  ?	-20%
COc1ccc(NC(=O)CN2C(=O)COc3ccc(S(=O)(=O)Nc4ccccc4)cc32)cc1
  0%	-7%
C[C@@H](O)c1nc2ccccc2n1N
  -6%	i
O=C(CCNC(=O)c1ccccc1Cl)NC1=NCCS1
  0%	i
Cc1cc(O)c(C)c(O)c1/C=N/NC(=O)c1cccnc1
  -23%	?
Fc1ccc(C2=CSC3=NCCN23)cc1
  6%	13%
COCCOC(=O)C1=C(C)N=C2SCCC(=O)N2C1c1ccc(OCc2ccccc2)c(OC)c1 (stereo not drawn)
  -6%	-9%
COc1cccc(C2(CC(=O)N3CCCOc4c(cccc4OC)C3)CC(=O)N(C)C2=O)c1 (stereo not drawn)
  -12%	i
CCOC(=O)c1cc2c(ccn2-c2ccc(F)cc2)n1CC(=O)N1CCN(C(=O)c2ccco2)CC1
  -1%	-2%
CSc1ccc(CCNC(=O)c2cc3cc(S(=O)(=O)N4CCCCC4)ccc3n2C)cc1
  -27%	-27%
CNC(=S)N(CCc1c(C)[nH]c2ccccc12)Cc1ccco1
  -12%	?
CC1=CC(C)(C)N(C(=O)CN2C(=O)c3ccccc3C2=O)c2ccccc21
  -4%	-12%
COc1ccc(NC(=O)C2Cc3c(-c4ccc(NC(C)=O)cc4)ccnc3O2)cn1 (stereo not drawn)
  ?	-17%
CCC(COC)NC(=O)CCc1nnc(Cc2cccc(C(F)(F)F)c2)o1 (stereo not drawn)
  -17%	i
CN(C)C(CNc1ncnc2sc3c(c12)CCCCC3)c1ccco1 (stereo not drawn)
  -5%	-9%
O=S(=O)(c1ccc(Br)s1)N1CCN(c2cccc(C(F)(F)F)c2)CC1
  -9%	-8%
COC(=O)[C@]12CCCCC=C1N(CCC1=CCCCC1)C(=O)[C@H](CC(=O)N1CCN(C(=O)C3CC3)CC1)C2
  -7%	21%
CCN(CC(=O)Nc1ccccc1OC)C(=O)CSCc1ccc(C)cc1
  -20%	-18%
O=C(CSc1nnc(Nc2ccccc2)s1)NCc1ccco1
  -13%	-21%
O=C(/C=C/c1ccc(-c2ccccc2)o1)c1ccccc1
  -1%	-23%
Cc1cccc(C)c1N1CCN(C(c2cc3ccccc3o2)c2nnnn2C(C)(C)C)CC1 (stereo not drawn)
  -20%	?
C=CCN1C(=O)C(O)(CC(=O)c2ccc(Cl)cc2)c2ccccc21 (stereo not drawn)
  -15%	?
CNc1nc2c(c(=O)n(C)c(=O)n2C)n1CCCc1ccccc1
  -24%	-9%
Cc1cccc(S(=O)(=O)NC(=O)C2(C)CCN2C(=O)Cc2cccs2)c1 (stereo not drawn)
  -1%	2%
O=C(Nc1ccc(Cl)cc1)c1csc(COCCO)n1
  0%	1%
NS(=O)(=O)OCCCc1ccc(C(F)(F)F)cc1
  -25%	-10%
CC(C)(C)c1ccc(S(=O)(=O)NCCOCC(F)(F)C(F)F)cc1
  -15%	-22%
O=C(CSc1nc2ccccc2[nH]1)c1ccc(Cl)s1
  -17%	·
O=c1c(-c2ccccc2)nnc2sc(COc3ccc(Br)cc3)nn12
  -11%	-22%
Cc1nc2ccccc2c(=O)n1C1CCCCCC1
  -16%	-24%

# Random excerpt: 4 records from the list.
# Results follow in this order: Vaccinia Venus	Vaccinia mCherry
CN(CCO)C(=O)c1cccc2c1-c1ccccc1C2=O
  -8%	-15%
CSc1ccc(CCNC(=O)c2cc3cc(S(=O)(=O)N4CCCCC4)ccc3n2C)cc1
  -27%	-27%
COCCn1c(SCC(=O)NC(=O)NC(C)C)nc2ccccc21
  -20%	·
C[C@@H](O)c1nc2ccccc2n1N
  -6%	i

# Going on with the list:
# Results follow in this order: Vaccinia Venus	Vaccinia mCherry
CC(C)Oc1ccc(C(CC(=O)O)Cc2ccccc2)cc1 (stereo not drawn)
  -6%	-11%
COc1ccc(C)cc1NC(=O)CC(=O)Nc1ccc2nc3n(c(=O)c2c1)CCCCC3
  ?	?
CN1C(=O)C2(C(C#N)=C(N)N(c3cc(Cl)cc(Cl)c3)C3=C2C(=O)CCC3)c2ccccc21 (stereo not drawn)
  -7%	·
Cn1nc(C#N)c(=O)[nH]c1=O
  2%	i
CCCCn1nnnc1-c1nc2ccccc2[nH]c1=O
  -6%	-13%
Nc1ccc2ncccc2c1N
  -11%	i
CC(C)CCCNc1nc(N2CCOCC2)nc(N2CCOCC2)n1
  -21%	-7%
Cc1nc(CCNC(=O)Cc2ccc(Cl)cc2)cs1
  3%	-26%
CCOc1ccc(NC2=CC(=O)C(=O)c3ccccc32)cc1
  ?	?
O=C(NCCCNC1CCCCC1)c1ccc(/C=N/O)nc1
  5%	-2%
CC(C)c1cc(C(=O)NCc2ccccc2)no1
  -7%	0%
CCOc1ccc(S(=O)(=O)N2CCC(C(=O)NCc3ccncc3)CC2)cc1
  -16%	-20%
CC(C)c1ccc(OCc2ccc(C(=O)N(C)C)o2)cc1
  -6%	-5%
CCC(c1n[nH]c(=S)n1-c1ccccc1)N(C)C (stereo not drawn)
  5%	-13%
Cc1ccccc1C(=O)Nc1c(C(=O)N2CCCC2)cnn1-c1ccccc1
  -12%	i
COCCNC(=O)Cn1ncc2ccsc2c1=O
  -6%	-27%
Cc1ccc(NC(=S)NCc2ccccn2)cc1
  -3%	·
COCc1nc2sc3c(c2c(=O)[nH]1)CCCC3
  -11%	-12%
Cc1cc(NC(=O)CSc2n[nH]c(-c3cccs3)n2)no1
  -7%	-11%
CC(C)N(C(=O)Cc1ccccc1[N+](=O)[O-])C(C)C
  -9%	-8%
CCOC(=O)N1CCN(C(=O)c2csc3c2CCCCC3)CC1
  -14%	-14%
Nc1nn2c(-c3ccccc3)cc(=O)[nH]c2c1N=Nc1ccc(O)cc1
  -8%	-20%
Cc1ccc(C)n1-c1ccc(C(=O)N/N=C/c2ccncc2)cc1
  1%	0%
CCc1ccc(-n2nc(C)c3c(C(=O)Nc4cc(OC)cc(OC)c4)cc(C)nc32)cc1
  -19%	-14%
CC(=O)NCCc1csc(-c2ccccc2)n1
  -11%	-17%
CCOc1nc(C#N)nc(N2CCCCC2)n1
  -6%&-14%	-8%&33%
CC(C)c1nnc(NC(=O)CCC(=O)NCc2ccccc2Cl)s1
  1%	-17%
CC(C(=O)NC1C(=O)N2C(C(=O)O)=C(CSc3nnnn3C)CSC12)n1cc(Cl)cn1 (stereo not drawn)
  2%	-3%
O=C(Nc1ccccc1)[C@@H]1CC=C[C@@H]2CCN(C3CCCCC3)C(=O)[C@@H]21
  -2%&-10%	-13%
CCOC(=O)c1c(C)sc2c1N(C(=O)CCl)c1cc(Cl)ccc1S2
  -30%	?
Cc1cccc(Cn2c(=O)c3c(nc4n3CCCN4Cc3ccccc3)n(C)c2=O)c1
  -19%	-26%
O=C(Nc1ccncc1)C1CCN(S(=O)(=O)c2ccccc2C(F)(F)F)CC1
  -21%	-7%
COc1ccc(-n2c(SCC(=O)NCc3ccc(C)cc3)nc3n[nH]c(C)c3c2=N)cc1
  -14%	-4%
Cc1ccc(S(=O)(=O)N/N=C2/CCCCC2C2CCCCC2)cc1[N+](=O)[O-] (stereo not drawn)
  -9%	-12%
COc1ccccc1OCC(O)CN1CCN(CC(=O)Nc2c(C)cccc2C)CC1 (stereo not drawn)
  -16%&-13%&-12%	0%
COCc1cccc(-c2csc(C(O)c3ccccc3)n2)c1 (stereo not drawn)
  -17%	?
O=C1NC2(CCCCC2)C(=O)N1c1ccc(Cl)cc1
  -5%	-2%
COC(=O)c1sccc1Oc1c(Cl)cccc1[N+](=O)[O-]
  -3%	2%
COc1ccc(F)cc1S(=O)(=O)N1CCc2ccccc2C1
  -5%	-26%
COc1ccc(CC(=O)Nc2sc3c(c2C(=O)Nc2c(C)cccc2C)CCCCC3)cc1
  ?	?
CNC(=O)c1ccccc1S(=O)(=O)c1ccccc1C#N
  -27%	·
CCOC(=O)C1=NNC(C(=O)c2ccc(Cl)cc2)C1c1ccc(OC)cc1 (stereo not drawn)
  -14%	?
Nc1nc(N2CCN(c3ccc(F)cc3)CC2)n[nH]1
  3%	-7%
Cc1cc(NC(=O)CN2CCN(c3cccc(Cl)c3)CC2)no1
  -3%	-13%
CN(CC(O)Cn1cnc2c1c(=O)n(C)c(=O)n2C)c1ccccc1 (stereo not drawn)
  -4%	i
Cc1ccc(C(=O)Nc2cccc3cccnc23)cc1Cl
  0%	9%
CC(Sc1nc2ccccc2c(=O)[nH]1)C(=O)O (stereo not drawn)
  -6%	-17%
CC(C)OC(=O)C(C#N)c1nc2ccccc2nc1N1CCCC1 (stereo not drawn)
  -20%	·
CCOC(=O)c1c(NC(C)=O)sc2c(OC)c(Br)ccc12
  -7%	-10%
CCN(C(=O)c1cc(Cl)ccc1Cl)C1CCS(=O)(=O)C1 (stereo not drawn)
  -9%	-6%
CC(C)(C)c1csc(NNC(=O)c2ccc(Cl)cc2)n1
  ?	7.1µM*
COc1ccc(-c2nc3ccc(C)cn3c2Cc2cccc(Cl)c2)cc1OC
  -11%	i
CN(NC(=O)C(C)(C)C)c1nc(-c2ccccc2)nnc1C(F)(F)F
  -8%	-5%
COC(=O)c1sccc1NS(=O)(=O)c1ccccc1
  -2%	i
CCN1c2cc(C)ccc2-n2cccc2C12CCN(C(=O)Nc1cc(OC)c(OC)c(OC)c1)CC2
  -21%	-12%
O=C(NC1CCN(C(=O)N2c3ccccc3Sc3ccccc32)CC1)c1ccccc1Cl
  -25%	-24%

# Source: PubChem
